TRPML1 inh: inhibitors of human TRPML1 channel | 390,000 tested, 0.02% active | activity change, negative = inhibition, % (concentration not given with the values) | TRPML1-inducible cells, Ca2+ dye fluorescence, FDSS; active compounds read low; inhibition of EC80 agonist-evoked calcium signal; in the data active means activity change below about -50%; inconclusive means about -30% to -50%; inactive means above about -30%;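 also: stimulus is agonist 54-4 at its EC80 concentration; % is scaled to controls: 0 for no effect and ±100 for the full control effect; the text of the record puts the active cut at -80%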
Target sequence (Q9GZU1 whole entry, looked up): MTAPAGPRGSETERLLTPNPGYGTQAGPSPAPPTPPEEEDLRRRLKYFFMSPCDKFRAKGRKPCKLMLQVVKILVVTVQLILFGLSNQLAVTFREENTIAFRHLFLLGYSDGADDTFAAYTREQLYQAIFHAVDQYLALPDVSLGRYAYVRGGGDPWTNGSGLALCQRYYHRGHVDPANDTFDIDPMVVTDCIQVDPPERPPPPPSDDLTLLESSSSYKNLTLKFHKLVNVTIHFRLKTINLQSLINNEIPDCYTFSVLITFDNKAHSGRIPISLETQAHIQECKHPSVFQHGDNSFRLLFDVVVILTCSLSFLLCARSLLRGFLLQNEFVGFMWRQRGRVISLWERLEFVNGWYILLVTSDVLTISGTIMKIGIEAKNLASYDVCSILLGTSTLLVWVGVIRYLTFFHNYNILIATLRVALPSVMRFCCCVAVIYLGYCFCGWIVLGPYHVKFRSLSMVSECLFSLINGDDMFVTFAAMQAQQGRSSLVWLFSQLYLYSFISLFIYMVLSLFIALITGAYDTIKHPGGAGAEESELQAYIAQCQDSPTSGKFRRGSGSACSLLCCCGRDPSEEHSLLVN
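Tet-induced TRPML1-DL cells loaded with Ca8 no-wash calcium dye were read kinetically on FDSS. Compound addition was followed by EC80 agonist 54-4 (4 uM final); inhibition was read over 110 s.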
Menin MLL FP FL: inhibitors of human menin-MLL interaction, wild-type MLL peptide; Fluorescence polarization, fluorescein-MLL peptide displacement from menin; FP activity change, % at 61.4 µM; 290,000 tested, under 10 active; AID 1766; inconclusive = falling polarisation curve, or a change in total fluorescence; inactive = total fluorescence flat and polarisation flat or rising; no compound was filed as active; the % refers to the polarisation; negative = inhibition;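 also: % of control where 0% means no effect; inhibitors lower the polarisation; unlabelled MLL peptide was the positive control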
ClpP mod: qHTS Assay for Activators of ClpP; ATP-dependent Clp protease proteolytic subunit (Bacillus subtilis (strain 168)), P80244; purified B. subtilis ClpP, FRET peptide cleavage, 20 min; Potency, µM (highest dose often 57.5 µM), for the others: at the top dose activity change, negative = active; 340,000 tested, 1.9% active; AID 651965, 2013; active = well fitted falling curve with a large enough effect; inconclusive = small, poorly fitted or top-dose-only effect; inactive = no such curve, though single readings can be large or run the other way; also: potency is read from the fitted curve at half-maximal effect; the source files actives as falling curves though it sought activators and does not explain the sign; nearly all actives have a fitted effect of over 65% in size; many hits overshoot -100%
Target sequence (P80244 whole entry, looked up): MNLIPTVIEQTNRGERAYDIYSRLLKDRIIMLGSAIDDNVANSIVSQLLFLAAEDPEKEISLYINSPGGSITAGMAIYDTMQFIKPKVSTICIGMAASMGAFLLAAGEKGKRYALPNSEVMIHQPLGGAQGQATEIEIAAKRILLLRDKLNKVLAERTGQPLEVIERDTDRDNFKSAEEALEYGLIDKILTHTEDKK
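ClpP 10 microg/mL final, pH 8 Tris/KCl buffer with BSA, glycerol, Tween-20; compound pinned in; FRET-FV substrate; RT 20 min; Ex320/Em430; ΔFRET vs ADEP 5.8 microM, DMSO, no enzyme.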
TRPML1 ag: human mucolipin-1 channel agonism | Q9GZU1 | TRPML1-expressing cells, Ca2+ dye fluorescence, FDSS; host cell line not named in the record; reference of the full effect not given here | activation, % (no concentration beside the values) | 410,000 tested, 0.12% active; in the data active = activation above about 50%; inconclusive = about 30% to 50%; inactive = below about 30%; also: 0% is about no effect; the text of the record puts the active cut at 80%
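Cells: TRPML1-DL, 1X Tet inducer, ~16 h at 37 degrees C/5% CO2. Dye: ABD Ca8 no-wash + quencher, 45-90 min RT. Read: 10 s baseline, compound add, 110 s agonist phase; 54-4 EC80 (4uM final), 110 s antagonist phase.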
gsp ag: agonists of gsp mutant (McCune-Albright syndrome); 340,000 tested, 0.13% active; gsp mutant cells, cAMP HTRF, 30 min; control for the full effect not named in the record; Potency, µM (titrated, usually from 76.9 µM), inactives show at the top dose activation (cAMP increase), usual class: activators; AID 624287; active = well fitted activation curve with a large enough effect; inconclusive = small, poorly fitted or top-dose-only effect, or another doubt; inactive = no such curve, though single readings can be large or run the other way; cell line not stated here;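 also: phosphodiesterase inhibitor Ro 20-1724 added with compounds to block cAMP breakdown; potency is read from the fitted curve at half-maximal effect; nearly all actives have a fitted effect of over 60% in size; about a fifth of the inactives were tested at one dose only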
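Cells stably selected in G418 were plated at 2000/well, grown 16-24 hr, then given compounds in DMSO with the PDE inhibitor […] (300 uM solution added) for 30 min at 37C; cAMP was read by HTRF.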
gsp antag: antagonists of gsp mutant (McCune-Albright syndrome). Potency, µM (doses to about 76.9 µM), for the others: at the top dose activity change, negative = inhibition, actives largely listed as inhibitors. 340,000 tested, 0.4% active. gsp-mutant cells, cAMP HTRF, 30 min; control for the full effect not named in the record; active = falling curve of any shape with a large fitted effect; inconclusive = falling curve, mostly with a smaller effect; inactive = flat or rising curve; cell line not stated here;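 also: intracellular cAMP measured with PDE inhibitor Ro 20-1724 present during compound exposure; potency is read from the fitted curve at half-maximal effect; % is scaled to controls: 0 for no effect and ±100 for the full control effect; nearly all actives have a fitted effect of over 65% in size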
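G418-selected cells were plated in DMEM/10% FBS for 16-24 h at 37C, then treated with compounds plus the PDE inhibitor […] (300 uM solution added) for 30 min at 37C. Intracellular cAMP was measured by HTRF after 30 min lysis at room temperature.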
Numbers without * were called inactive; ? = inconclusive; . = not tested or not shown; & = joins results of further samples; [ ] = remark or other dose.

Value order: gsp ag	Menin MLL FP FL	gsp antag	ClpP mod	TRPML1 inh	TRPML1 ag
COC(=O)c1ccccc1N=Nc1c(N)[nH][nH]c1=O
 : 20%	-2.6	40µM*	.	5	-0.2
NC(=O)Cn1c(S(=O)(=O)Cc2ccccc2)nc2ccccc21
 : ?	.	18%	2.1%	-4	-0.2
COC(=O)c1cc(C(=O)OCC(=O)NCc2cccs2)cc([N+](=O)[O-])c1
 : -47%[inhibitor]	.	-16%	-1.8%	-19	0.2
CCOc1ccc(NC(=S)NC(=O)/C=C/c2ccc(OC)c(OC)c2)c([N+](=O)[O-])c1
 : 10%	3.4	-7%	7.5%	14	0.0
CCOC(=O)C1CCN(C2=NC(=O)/C(=C/c3ccc(OC)c(OC)c3)S2)CC1
 : 5%	-5.3	-13%	-3.8%	10	-0.5
COc1cccc(NC(=O)CSc2nnc3cc(C)nc(N)n23)c1
 : -9%[15.4 µM]	2.1	.	.	-7	-0.5
O=C(NN=C1CCN(Cc2ccccc2)CC1)c1cc(Br)ccc1O
 : -85%[inhibitor]	5.2	-13%	3.5%	6	0.1
CN(C(=O)CC1C(=O)NCCN1Cc1ccc(F)c(F)c1)C1CCOCC1 (centres undefined)
 : 1%	-2.9	0%	.	-29	0.0
Cc1ccccc1/C(N)=N/OC(=O)c1cccs1
 : -33%[inhibitor]	-1.3	18%	-0.4%	3	-0.6
O=C(CSc1ccc(F)cc1)NCCc1ccc(Cl)cc1
 : 12%[15.4 µM]	-11	4%	.	-5	1.1
CCCCc1ccc(/C(C)=N/NC(=O)C2CCCC2)cc1
 : 1%	-1.6	8%	0.6%	3	1.9
O=C(COC(=O)CNC(=O)c1ccccc1)NC1CCCC1
 : 2%[15.4 µM]	.	-3%	.	10	-0.5
S=C(CN1CCCC1=S)NCCc1ccccc1
 : 3%	-3.7	3%	.	-18	2.0
CN(CC(=O)Nc1cccc(F)c1)C(=O)c1ccccc1CCc1ccccc1
 : 16%	.	?	1.1%	-7	0.1
COc1ccc(N(C)C(=O)c2cc(S(=O)(=O)N3CCc4ccccc43)cn2C)c(OC)c1
 : .	.	.	0.1%	0	0.8
CSC1=NCCN1C(=O)c1c(F)cccc1F
 : 2%	4.4	13%	-0.7%	4	0.1
CCOc1cccc(SCc2noc(C(=O)NC(C)C)c2C(=O)O)c1
 : .	1.0	1%	-2.0%	-16	0.4
NC(=S)N=Nc1c(O)cc(O)c2[nH]c(=O)ccc12
 : 7%	.	?	1.6%	7	0.8
CN1CCN(Cc2nc3c(c(=O)[nH]c(=O)n3C)n2CCc2ccccc2)CC1
 : 7%	1.9	1%	-1.4%	18	0.1
NC(=O)c1ccccc1N=Cc1ccc2ccccc2c1
 : -41%[inhibitor]	3.4	-8%	?	16	0.2
COc1cccc(NC(=O)Cc2nnc(SCCOc3ccccc3)n2C)c1
 : 16%	-4.1	-3%	-3.1%	0	0.9
O=C(COc1ccccc1Br)Nc1ccccc1C(F)(F)F
 : -51%[inhibitor]	1.6	-2%	-1.8%	-5	1.9
CCCC(C(=O)NC1CCCC1)N(Cc1ccccc1)C(=O)c1snc(C(N)=O)c1N (centres undefined)
 : ?	-0.5	-5%	-18%	3	3.5
Cc1nc2ccccc2c(=O)n1-c1ccc(NC(=O)c2cccc([N+](=O)[O-])c2)cc1
 : .	.	.	1.2%	-5	-0.3
N#CCCn1cc(C(=O)Nc2ccccn2)c(-c2ccccc2)n1
 : 1%[15.4 µM]	-2.6	-1%	3.6%	28	0.8
Cc1noc(C)c1CCC(=O)Nc1cc(Cl)ccc1C(=O)O
 : -53%[inhibitor]	.	.	-4.9%	-1	-0.6
COCCNC(=S)N1CCN(C(c2ccccc2)c2ccccc2)CC1
 : -4%	-8.4	-3%	-0.4%	-21	1.6
CCC(C)NC(=O)/C=C/c1ccc(S(=O)(=O)NCc2ccco2)cc1 (centres undefined)
 : -7%[15.4 µM]	-2.3	-3%	.	-20	-0.6
CNC(=O)Nc1cc(C(F)(F)F)cc(C(F)(F)F)c1
 : 0%[15.4 µM]	1.7	5%	.	-9	-0.5
COc1ccc2cc(-c3cn4c(n3)sc3cc(F)ccc34)c(=O)oc2c1
 : .	.	.	-2.7%	-17	1.2
C[C@@H]1CN([C@H](C)CO)C(=O)CCCn2cc(nn2)CO[C@H]1CN(C)C(=O)c1ccc2ccn(C)c2c1
 : .	.	.	?	26	0.3
COc1ccccc1CCNC(=O)c1cc(COc2cccc(C(F)(F)F)c2)on1
 : -2%	.	-11%	-0.2%	9	1.7
Cc1cccc(C)c1NC(=S)N1CCCCCC1
 : -10%[15.4 µM]	10	11%	.	11	-0.7
O=C(Nc1cccc(C(F)(F)F)c1)C1Cc2c(-c3cccc(F)c3)ccnc2O1 (centres undefined)
 : .	.	.	-20%	59	-0.8
Cc1ccc(S(=O)(=O)N2CCN(C(=O)CCC(=O)OCC(=O)Nc3cccc(C#N)c3)CC2)cc1
 : ?	0.1	?	-0.5%	-7	0.8
CCc1ccc2occ(CC(=O)Nc3sc4c(c3C(=O)OC)CCC4)c2c1
 : .	.	.	?	13	0.4
Cc1c(NC(=O)C(C)N2C(=O)NC3(CCC(C)CC3)C2=O)c(=O)n(-c2ccccc2)n1C (centres undefined)
 : -19%[15.4 µM]	0.6	14%	.	4	0.2
COCc1cc(=O)oc2cc(NS(=O)(=O)c3ccc(C)cc3)ccc12
 : -1%[15.4 µM]	16	-8%	-20%	34	-0.1
Cc1ccc(OCCCN2C(=O)C(=O)c3cc(C)ccc32)cc1
 : 16%	-6.6	29%	2.4%	-5	0.6
O=C(CSC(=S)N1CCCC1)Nc1cc2c(cc1Br)OCCO2
 : 0%	-2.5	-3%	0.8%	8	-0.7
OC(c1ccccc1)(c1ccccc1)c1ncc[nH]1
 : ?	.	5%	-2.9%	20	-0.5
O=C(NCc1ccccc1CN1CCCC1)c1ccc(Cl)c(N2CCCC2=O)c1
 : 23%	.	5%	-1.2%	9	-0.4
CCOc1ccc(S(=O)(=O)n2cnc(C)c2)cc1
 : 2%	3.0	5%	-0.6%	-5	0.6
CCN(CC(=O)NCc1cccs1)C(=O)c1ccc(OC)c(OC)c1
 : -68%[inhibitor]	.	9%	0.2%	10	-0.6
Cc1cccc(NC(=O)c2ccc(COc3ccccc3[N+](=O)[O-])o2)n1
 : 5%	6.2	-2%	-2.0%	-12	2.8
Cc1ccc(N=Cc2c(O)n(-c3nccs3)c(=O)c3ccccc23)cc1
 : -28%	-4.4	-12%	-15%	-7	0.9
CCN(CC)S(=O)(=O)c1ccc(C(=O)Oc2coc(CSc3nc(C)cc(C)n3)cc2=O)cc1
 : 10%[15.4 µM]	5.1	-10%	-0.5%	-3	0.7
NC(=NC(=O)c1ccc(OCC(F)(F)F)nc1)c1ccc(Cl)cc1
 : 27%	2.4	4%	.	7	0.2
O=S(=O)(c1ccccc1)N1CCN(Cc2ccc(Cl)cc2)CC1
 : 8%	0.3	-16%	1.3%	-2	-0.2
Cc1csc(NC(=O)CSc2ccc3nnc(-c4ccncc4)n3n2)n1
 : -1%	1.9	4%	2.6%	2	-0.6
Cc1ccc(N(C(=O)c2csnn2)C(C(=O)NC2CCCC2)c2ccncc2)c(C)c1 (centres undefined)
 : -15%	.	0%	.	-14	0.7
Cc1[nH]nc2c1C1(CCN(Cc3ccccc3)CC1)C(C#N)=C(N)O2
 : -6%	?	-6%	-17%	13	1.0
CCN(CC(=O)NC(C)(C)C)C(=O)c1ccccc1SCC(=O)NC1CCCCCCC1
 : -28%	.	-1%	-4.2%	9	0.8
O=C(NCc1ccc2c(c1)OCO2)c1ccccc1Cl
 : ?	.	-1%	.	2	1.1
CC(C)(C)NC(=O)C(c1cccs1)N(C(=O)c1csnn1)c1ccccc1F (centres undefined)
 : -23%	-0.6	6%	-1.7%	-7	3.5
O=C(COC(=O)c1ccc2ccccc2n1)NC1CCCCC1
 : 14%	.	1%	-14%	20	2.2
COc1ccccc1NC(=O)CSc1ncc(CO)n1Cc1ccc(F)cc1
 : -9%	.	-16%	-0.3%&-12%	-24&14	0.5&0.4
CCCCn1c(N)c(N(CC)C(=O)c2cnc(C)cn2)c(=O)[nH]c1=O
 : 6%	.	15%	-3.9%	17	0.1
O=C1CC2(CCN(C(=O)c3cccc(Cl)c3)CC2)Oc2ccccc21
 : 1%[15.4 µM]	.	-20%	?	9	-0.3
COc1ccc(C(C)=O)cc1CN1C(=O)NC(c2ccccc2)(c2ccccc2)C1=O
 : -8%[15.4 µM]	0.2	-2%	.	28	-0.4

Other results:
Value order: gsp ag	Menin MLL FP FL	gsp antag	ClpP mod	TRPML1 inh	TRPML1 ag
Cc1ccc(Sc2ncnc3onc(C)c23)cc1
 : 15%	6.1	-4%	-2.8%	2	0.7
O=C(c1ccc2c(c1)N(Cc1ccccc1F)C(=O)c1ccccc1S2=O)N1CCN(c2ccccc2)CC1 (centres undefined)
 : .	.	.	-0.7%	-3	-0.9
CCOc1ccc(CCNC(=O)CCCn2c(=O)c3cccn3c3ccccc32)cc1
 : .	.	.	-8.7%	-14	1.6
Cc1cc(NS(=O)(=O)c2ccc(NC(=S)NC(=O)c3ccc(F)cc3Cl)cc2)no1
 : -6%[15.4 µM]	3.9	-6%	1.2%	-22	-0.8
O=C(Nc1ccc2nn(-c3ccccc3)nc2c1)c1ccc(Br)o1
 : -5%	11	5%	5.2%	-4	-0.3
COc1ccc(/C=N/c2c(-c3ccco3)nc3ccccn23)cc1OC
 : 8%	-7.8	8%	28µM*	-12	11
COc1cc(CNCc2ccncc2)ccc1OCC(N)=O
 : 21%	.	5%	.	22	0.4
CSCCC1(C(=O)O)NC(c2ccccc2O)C2C(=O)N(C(C)C)C(=O)C21 (centres undefined)
 : -5%	-2.5	7%	0.7%	11	-0.1
Cc1ccc2c(c1)N(C(=O)N1CCC(C(=O)Nc3cccc(F)c3)CC1)CCO2
 : .	.	.	0.2%	18	0.0

A stretch taken from the entries so far:
Value order: gsp ag	Menin MLL FP FL	gsp antag	ClpP mod	TRPML1 inh	TRPML1 ag
COc1ccc(/C=N/c2c(-c3ccco3)nc3ccccn23)cc1OC
 : 8%	-7.8	8%	28µM*	-12	11
COc1cc(CNCc2ccncc2)ccc1OCC(N)=O
 : 21%	.	5%	.	22	0.4
CSCCC1(C(=O)O)NC(c2ccccc2O)C2C(=O)N(C(C)C)C(=O)C21 (centres undefined)
 : -5%	-2.5	7%	0.7%	11	-0.1
Cc1ccc2c(c1)N(C(=O)N1CCC(C(=O)Nc3cccc(F)c3)CC1)CCO2
 : .	.	.	0.2%	18	0.0

Rows are unselected; overall some 2.1% were active at least once.
